Bioassay records from PubChem BioAssay.
KCNQ2 inh – KCNQ2 potassium channel inhibitors, primary screen, cell-based, CHO-K1, FluxOR thallium flux, B-score (AID 2156). 20 min; stronger effect = lower value; only compounds with negative scores are shown here; some inactives read as strong as hits. Potassium voltage-gated channel subfamily KQT member 2 (Rattus norvegicus), O88943. B-score at 10 µM. actives 1.1% (n = 310,000);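 active means fluorescence ratio B-score at most minus 3 library SDs, with starting brightness B-score within 2 library SDs, cut at about -5.5 in these data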
Target sequence (O88943 whole entry, looked up): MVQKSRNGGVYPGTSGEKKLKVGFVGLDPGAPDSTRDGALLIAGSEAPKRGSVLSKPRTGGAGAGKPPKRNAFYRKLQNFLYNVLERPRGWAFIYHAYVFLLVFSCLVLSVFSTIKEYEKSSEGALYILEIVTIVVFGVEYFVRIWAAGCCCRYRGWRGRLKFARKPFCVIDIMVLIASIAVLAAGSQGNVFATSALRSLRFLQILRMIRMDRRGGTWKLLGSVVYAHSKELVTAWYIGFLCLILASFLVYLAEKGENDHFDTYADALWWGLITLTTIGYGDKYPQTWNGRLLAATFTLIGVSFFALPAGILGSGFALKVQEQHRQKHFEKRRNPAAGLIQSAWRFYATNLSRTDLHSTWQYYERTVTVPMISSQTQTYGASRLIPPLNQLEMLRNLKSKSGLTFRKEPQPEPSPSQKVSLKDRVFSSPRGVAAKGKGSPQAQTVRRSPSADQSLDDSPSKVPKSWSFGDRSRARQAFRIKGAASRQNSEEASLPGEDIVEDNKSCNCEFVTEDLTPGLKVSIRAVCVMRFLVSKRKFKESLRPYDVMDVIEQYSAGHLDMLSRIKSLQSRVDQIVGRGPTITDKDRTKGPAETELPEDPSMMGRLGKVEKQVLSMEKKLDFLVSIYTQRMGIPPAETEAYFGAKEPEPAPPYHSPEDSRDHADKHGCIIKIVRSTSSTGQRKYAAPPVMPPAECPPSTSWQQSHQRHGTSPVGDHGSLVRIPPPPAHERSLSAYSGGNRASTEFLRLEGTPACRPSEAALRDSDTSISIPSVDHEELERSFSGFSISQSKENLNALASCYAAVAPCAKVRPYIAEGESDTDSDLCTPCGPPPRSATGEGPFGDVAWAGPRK
KCNQ2 inh baseline – recorded beside KCNQ2 inh, whose call it bears; B-score; measured here: initial fluorescence intensity artifact check;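 brightness before thallium and not channel activity; 0 = typical well and far values either way flag optical interference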
Starred values were filed as active, the others as inactive; i = inactive. Not all compounds are listed. The share of hits here may be higher or lower than overall.

Below each SMILES – KCNQ2 inh, KCNQ2 inh baseline
CSCCC(NC(=O)COc1ccccc1)C(=O)NCc1cccs1 (stereo not drawn)
  i, -0.17
CCCC1=C(C(=O)OCC)C(c2cccs2)C(C#N)=C(N)O1 (stereo not drawn)
  i, 0.16
CC(C)OC(=O)CSc1nc2cccnc2n1C1CCCCC1
  i, 1.6
CCOC(=O)C1=C(COc2ccccc2)NC(=O)NC1c1ccc(Cl)cc1 (stereo not drawn)
  i, -0.43
Cc1noc(C)c1C(=O)NCCCc1ccccc1
  i, 0.74
COC(=O)C[n+]1cccc2ccccc21
  i, 14
Cc1cc(C)c2c(C)c(C(=O)Nc3c(C)n(C)n(-c4ccccc4)c3=O)oc2c1
  i, 0.04
Cc1ccc(C)c(NC(=O)c2cnccn2)c1
  i, 1.9
NC(=O)NCc1ccc(Cl)cc1
  i, -0.28
CC(C)(C)NC(=O)NC(=O)COC(=O)CCCc1c[nH]c2ccccc12
  i, 0.93
Cc1cc(-n2cnc3c(=O)[nH]cnc32)ccc1N
  i, 1.7
Cc1ccccc1NC(=O)CCN1CCN(C)CC1
  i, -0.4
Cc1ccc2cc(C3CC(c4ccco4)=NN3C(=O)CCC(=O)O)c(Cl)nc2c1 (stereo not drawn)
  i, 0.04
CC(C)Cn1c(N)c(C(=O)COC(=O)c2ccc3ccccc3n2)c(=O)n(C)c1=O
  i, -0.62
COc1ccc(/C=N/NC(=O)c2ccc(COc3cccc4cccnc34)cc2)cc1OC
  i, 0.98

Quoted from the listing:
Cc1ccc2cc(C3CC(c4ccco4)=NN3C(=O)CCC(=O)O)c(Cl)nc2c1 (stereo not drawn) – KCNQ2 inh baseline: 0.04
CC(C)(C)NC(=O)NC(=O)COC(=O)CCCc1c[nH]c2ccccc12 – KCNQ2 inh baseline: 0.93
CSCCC(NC(=O)COc1ccccc1)C(=O)NCc1cccs1 (stereo not drawn) – KCNQ2 inh baseline: -0.17
CCCC1=C(C(=O)OCC)C(c2cccs2)C(C#N)=C(N)O1 (stereo not drawn) – KCNQ2 inh baseline: 0.16
CC(C)Cn1c(N)c(C(=O)COC(=O)c2ccc3ccccc3n2)c(=O)n(C)c1=O – KCNQ2 inh baseline: -0.62
Cc1noc(C)c1C(=O)NCCCc1ccccc1 – KCNQ2 inh baseline: 0.74
Cc1cc(-n2cnc3c(=O)[nH]cnc32)ccc1N – KCNQ2 inh baseline: 1.7

New compounds follow:
Below each SMILES – KCNQ2 inh, KCNQ2 inh baseline
COC(=O)c1[nH]c2cccc(OC)c2c1NC(=O)CN1CCOCC1
  i, -1.5
CCOc1ccccc1N(C)S(=O)(=O)c1ccc2c(c1)CCN2C(=O)CCC(=O)O
  i, 0.04
CC(c1ccco1)N(C(=O)c1ccc(Cl)c([N+](=O)[O-])c1)c1ccccn1 (stereo not drawn)
  i, 1.4
CCOc1ccccc1CN1CCCC(CNC(=O)Cc2ccc(OC)cc2)C1 (stereo not drawn)
  i, 0.05
CCOc1ccc(OCCN2C(=O)c3ccccc3C2=O)cc1
  i, -0.77
O=C(N/N=C/c1coc2ccc(Cl)cc2c1=O)c1ccncc1
  i, 1.7
CCCCCOc1ccc(CN2CCOCC2)cc1Cl
  i, 1.1
C[C@H]1O[C@H](O[C@H]2[C@H](O)[C@@H](O)[C@@H](O[C@H]3[C@H](O)[C@@H](O)C(O)O[C@@H]3CO)O[C@@H]2CO)[C@H](O)[C@@H](O)[C@@H]1N[C@H]1C=C(CO)[C@@H](O)[C@H](O)[C@H]1O (stereo partly drawn)
  i, 6.2
COc1ccc(NCCC(O)c2ccc(Cl)cc2)cc1 (stereo not drawn)
  i, 2.5
CCC(C)(C)NC(=O)C(c1cccnc1)N(C(=O)c1csnn1)c1ccc(C)cc1 (stereo not drawn)
  i, -1.4
O=C(COC(=O)c1ccc(Cl)nc1)Nc1ncc(Cl)cc1Cl
  i, -0.1
c1ccc(CCc2ccccc2-c2nc(-c3ccccn3)no2)cc1
  i, 0.36
CCCOc1ccc(C(=O)NCCCn2ccnc2)cc1
  i, 1.1
CCCCCCCC1CC(/C(C)=N/NC(N)=O)OC1=O (stereo not drawn)
  i, -0.03
O=C(Nc1cccc(C(=O)N2CCN(Cc3ccccc3)CC2)c1)c1ccccc1
  i, -1.2
CC(C)(C)C(=O)Nc1ccc(Cc2ccncc2)cc1
  i, 1.9
Cc1ccccc1OCCC(=O)OCC(=O)Nc1ccc(N2CCOCC2)cc1
  i, 0.02
O=C1CN(C(=O)c2ccccc2Br)C(c2ccc(F)cc2)c2cc(F)ccc2N1 (stereo not drawn)
  i, -0.87
CCN(Cc1ccccc1)C(=O)c1oc2ccc(S(=O)(=O)N3CCOCC3)cc2c1C
  i, 0.49
Cc1ccc(C(=O)NCCSC2CCCCC2)cc1S(=O)(=O)Nc1ccccc1
  i, 0.64
CCc1cc(C(=O)N2CCCc3ccccc32)sc1C
  i, 0.08
Cc1ccnc2nc(C(=O)Nc3nnc(CC(C)C)s3)nn12
  i, 0.22
COC(=O)[C@@H]1C[C@]2(Br)c3ccccc3N(S(=O)(=O)c3ccccc3)[C@@H]2N1C(=O)OC
  i, -1.9
COc1ccc(/C=C2\C(=O)c3ccccc3OC2c2ccccc2)cc1 (stereo not drawn)
  i, -0.98
COc1ccc(S(=O)(=O)Cc2ccc(C(=O)N3CCN(C4CCCCC4)CC3)o2)cc1
  i, 0.03
COc1ccc(Cl)cc1S(=O)(=O)N1CCCC(C(=O)NCC(N)=O)C1 (stereo not drawn)
  i, 0.02
CCN1CCN(C(c2cccs2)C(C)NC(=S)NC2CCCCC2)CC1 (stereo not drawn)
  i, -0.03
CCN1C(=O)C(CC(=O)Nc2c(C)cccc2C)SC1=Nc1ccc(S(N)(=O)=O)cc1 (stereo not drawn)
  i, -0.68
O=C(/C(=C/O)N=Nc1ccccc1)c1cccs1
  i, -1.7
Nc1nccc(/C=C/c2c(Cl)cccc2Cl)n1
  i, 1.5

Filtered by structure: the compounds so far with an NH in an aromatic ring.
Below each SMILES – KCNQ2 inh, KCNQ2 inh baseline
CC(C)(C)NC(=O)NC(=O)COC(=O)CCCc1c[nH]c2ccccc12
  i, 0.93
Cc1cc(-n2cnc3c(=O)[nH]cnc32)ccc1N
  i, 1.7
COC(=O)c1[nH]c2cccc(OC)c2c1NC(=O)CN1CCOCC1
  i, -1.5

The list goes on.
Below each SMILES – KCNQ2 inh, KCNQ2 inh baseline
CCOc1ccc(OCC)c(S(=O)(=O)n2ccnc2C)c1
  i, -0.13
Cc1ccc(-n2nc3c(N4CCC(C(=O)NCCc5cccs5)CC4)nnc(C)c3c2C)cc1
  i, -1.9
O=[N+]([O-])c1ccc2c(c1)C(O)n1nc(-c3ccccc3)nc1S2 (stereo not drawn)
  i, 2.2
COCCNS(=O)(=O)c1ccc(-c2ccc(Cl)cc2)cc1
  i, 0.83
Cc1ccc(C)c(N=Cc2ccc(-c3ccc([N+](=O)[O-])cc3)o2)c1
  i, -0.08
CCN(CC)S(=O)(=O)c1ccc(C(=O)OCC(=O)NCc2ccco2)cc1
  i, -0.62
COc1cc(C(O)P(=O)(OC(C)C)c2ccc(N(C)C)cc2)cc(OC)c1OC (stereo not drawn)
  i, 2.7
Cc1nc([N+](=O)[O-])c(Br)n1Cc1ccc(Cl)c(Cl)c1
  i, 1
CC1CCCN(C(=O)CN2CCC(c3nc4ccc(Cl)cc4[nH]3)CC2)C1 (stereo not drawn)
  i, -0.36
CCc1ccc2c(CN3CCC(C(=O)OC)CC3)cc(=O)oc2c1
  i, 1.2
O=c1c2c([nH]n1-c1ccccc1)CCCC2
  i, 0.71
Cn1c(=O)c(C(=O)Nc2ccccn2)c(O)c2ccccc21
  i, 2.3
Cc1ccccc1-c1nc(C#N)c(N2CCC(C)CC2)o1
  -8.1*, 1.4*
CCOC(=O)c1c(C)[nH]c(C)c1S(=O)(=O)NCCc1sccc1C
  i, -0.68
O=C(NC(=S)NC1CCCCCC1)c1cncc(Br)c1
  i, 0.17
NC(=O)CNC(=O)C1CCCc2c1[nH]c1ccc(Cl)cc21 (stereo not drawn)
  i, -0.19
COC(=O)C(NC(=O)c1ccccc1)=C1CCCCC1
  i, 0.32
CCOC(=O)C1=C(CS(=O)(=O)c2ccc(F)c(C)c2)NC(=O)NC1c1ccc(O)c(O)c1 (stereo not drawn)
  i, -0.35
O=C(Cn1cncn1)N/N=C/c1cc([N+](=O)[O-])ccc1O
  i, 1.6
COc1ccc(NC(=O)c2sc(=S)[nH]c2N)cc1
  i, -0.71
COc1ccc([C@H]2C(C#N)=C([S-])N[C@](C)(O)[C@@H]2[n+]2ccccc2)cc1
  i, 1.4
COc1ccc(NC(=O)CC2C(=O)N(Cc3ccco3)C(=S)N2C(C)C)cc1 (stereo not drawn)
  i, 0.16
Cc1ccc(-n2ncc(C(=O)Nc3cc(Cl)ccc3Cl)c2C2CCNCC2)cc1
  i, -1
COC(=O)c1ccc(CN(C(C)=O)c2ccccc2)o1
  i, 2.2
O=C(NCC1CCCO1)c1cc(S(=O)(=O)N2CCOCC2)c(Cl)cc1Cl (stereo not drawn)
  i, -0.59
O=C(CCNS(=O)(=O)c1ccc(Br)cc1)N1CCN(c2ccccc2O)CC1
  i, 0.65
COCCN1CCn2c(nc3cc(NC(=O)c4ccc(OC)cc4)ccc32)C1
  i, -0.91
Cc1ccc(CN2C(=O)CCC2C(=O)NC2CCCC2)cc1 (stereo not drawn)
  i, 0.39
CCCCCCC(=O)Nc1ccc(Cl)cn1
  i, 1.2
COc1cccc(C(=O)Nc2cccc3ccccc23)c1
  i, -0.3

2 records picked at random from the list so far, as already listed:
Below each SMILES – KCNQ2 inh, KCNQ2 inh baseline
O=C(NCC1CCCO1)c1cc(S(=O)(=O)N2CCOCC2)c(Cl)cc1Cl (stereo not drawn)
  i, -0.59
COCCN1CCn2c(nc3cc(NC(=O)c4ccc(OC)cc4)ccc32)C1
  i, -0.91

(continued)
Below each SMILES – KCNQ2 inh, KCNQ2 inh baseline
O=C(COc1cc([N+](=O)[O-])cc2cccnc12)NCCC1=CCCCC1
  i, 0.07
CON(C)S(=O)(=O)c1ccc2c(c1)NC(=O)C1CCCN21 (stereo not drawn)
  i, 0.72
COc1ccc(CCNC(=O)C2CC(=O)N(C3CCCCCCC3)C2)cc1OC (stereo not drawn)
  i, 2.8
CCSc1nnc(NC(=O)[C@@H](NC(=O)c2ccc(C(C)(C)C)cc2)C(C)C)s1
  i, -0.92
CC(OC(=O)CCN1C(=O)C2CC=CCC2C1=O)C(=O)Nc1cccc(C#N)c1 (stereo not drawn)
  i, 0.34
CC1CCN(CCNC(=O)C2CCN(S(=O)(=O)c3cccc4nsnc34)CC2)CC1
  i, 0.46
Cc1cc(C(=O)NCC(c2ccco2)N(C)C)no1 (stereo not drawn)
  i, 2.6
COc1ccc(OC)c(C2CC(=O)OC3=C2C(=O)CC(C)(C)C3)c1 (stereo not drawn)
  i, -0.41
CC(C)CC(=O)N1CCN(C(=O)c2cccc(F)c2)CC1
  i, 0.28
CCOc1nc(-c2ccccc2)ccc1-c1noc(-c2cccnc2)n1
  i, 1.1
CCCn1c(N)c(N2CCCCC2)c(=O)n(CC(=O)Nc2ccccc2C)c1=O
  i, 1.9
O=C(COC(=O)COc1ccccc1)Nc1ccc(OC(F)(F)F)cc1
  i, 0.81
NC(=O)CSc1n[nH]c(=O)n1CCc1ccccc1
  i, -0.89
CC(=O)Nc1cc(S(=O)(=O)Nc2ccccc2)c(C)cc1C
  i, 0.41
O=C(Nc1ccccc1C(=O)NCc1cccnc1)c1ccco1
  i, 0.08
CCc1ccc(NC(=O)C2C3CCC(O3)C2C(=O)O)cc1 (stereo not drawn)
  i, 1.5
COC(=O)C1=C(C(=O)OC)[C@@H]2N(C)c3ccc(OC)cc3[C@@]23C[C@@H](C(=O)OC)N(C(=O)c2ccco2)C3=N1
  i, -0.83
CCCSCC(=O)Nc1ncc2c(n1)-c1ccccc1CC2
  i, 1.3
CCOC(=O)C1=C(O)/C(=C\c2cc(C)n(-c3ccccc3F)c2C)N=C1C
  i, 2.2
c1cncc(-c2nc(NCc3ccc4c(c3)OCO4)c3ccccc3n2)c1
  i, -0.13
COc1ccc(N2Cc3cccc(C(=O)NC(C)CCc4ccco4)c3C2=O)cc1 (stereo not drawn)
  i, 1.3
COc1cccc(NC(=O)COc2cc(O)c3c(c2)OC(C)(C)CC3=O)c1
  i, -0.12
Cc1ccc(NC(=O)c2oc3ccccc3c2NC(=O)c2ccc3c(c2)OCO3)cc1
  i, 0.13
O=C(CCNS(=O)(=O)c1cccs1)Nc1nccs1
  i, 2.8
COc1cc(OC)cc(-c2nc(-c3ccc(Br)cc3)no2)c1
  i, 0.85
Cc1ccc(C)c(OCCC(=O)OCC(=O)NC2CCS(=O)(=O)C2)c1 (stereo not drawn)
  i, -0.18
CCC(C)NCCCOc1ccc(C)cc1OC (stereo not drawn)
  i, -1.1
CNC(=S)N(CCc1c(C)[nH]c2ccc(C)cc12)Cc1ccc(OC)c(OC)c1
  i, 0.97
COC(=O)C1=C(C)N(c2cccc(C)c2)C(=O)/C1=C\c1cccs1
  -6.7*, -1.3*
O=C(CCN1C(=O)c2ccccc2C1=O)Nc1sc2c(c1C(=O)NCc1ccco1)CCCC2
  i, 0.42
Cc1cc(C(=O)CSc2cccc[n+]2[O-])c(C)n1-c1ccccc1
  i, 0.92
O=C(NCCO[N+](=O)[O-])c1cccnc1
  i, 0.89
Cc1nnc(NC(=O)c2c(F)cccc2F)s1
  i, -0.24
Cc1ccccc1COc1ccc(-c2nn[nH]n2)cc1
  i, 1.5
Cc1ccc2c(c1)N(CC(=O)NCC1CCCO1)C(=O)C(C)O2 (stereo not drawn)
  i, -0.87
C/C(=N/N1CCN(Cc2cccc3ccccc23)CC1)c1ccco1
  i, -1.1
COc1ccc(NC(=S)NC2CC3CCCC(C2)N3C2CC2)cc1 (stereo not drawn)
  i, -3
CCN(CC)CCn1c(NCc2cccc(OC)c2OC)nc2ccccc21
  i, -1.7
Nc1ccccc1SCc1cc([N+](=O)[O-])cc2c1OCOC2
  i, 0.46
CCCSc1nc(C)c(-c2csc(C(C#N)=C3CCCC3)n2)cc1C#N
  i, 0.48
COc1ccc(/C=N/N2CCOCC2)cc1COc1ccc(F)cc1
  i, 1.3
